Screens from PubChem.
VCAM-1 imaging = inhibitors of TNFa-induced VCAM-1 surface display, imaging, high-content imaging, pooled HUVEC, TNFa stimulus (AID 456). HUVEC TNFa-induced VCAM-1 surface expression, immunofluorescence imaging; numbers were filed only for top-ranked candidate wells. inhibition, % at 5 µM, or IC50 in µM where a hit was titrated. 0.2% of 10,000 active;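 active means top tenth filtered wells with inhibition above zero that passed visual or statistical confirmation; inactive means the rest, including hits rejected on review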;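 further: 0% = stimulated vehicle wells and 100% = unstimulated cells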
FPR ligand = ligands of human FPR, also counter-screen for FPRL1 ligands. FPR-expressing cells, fluorescent ligand binding, flow cytometry. P21462. inhibition, %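 (tested at 6.7 µM)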. 0.74% of 24,000 active;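 further: 0% = buffer wells and 100% = receptor blocker peptide wells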
Target sequence (P21462 whole entry, looked up): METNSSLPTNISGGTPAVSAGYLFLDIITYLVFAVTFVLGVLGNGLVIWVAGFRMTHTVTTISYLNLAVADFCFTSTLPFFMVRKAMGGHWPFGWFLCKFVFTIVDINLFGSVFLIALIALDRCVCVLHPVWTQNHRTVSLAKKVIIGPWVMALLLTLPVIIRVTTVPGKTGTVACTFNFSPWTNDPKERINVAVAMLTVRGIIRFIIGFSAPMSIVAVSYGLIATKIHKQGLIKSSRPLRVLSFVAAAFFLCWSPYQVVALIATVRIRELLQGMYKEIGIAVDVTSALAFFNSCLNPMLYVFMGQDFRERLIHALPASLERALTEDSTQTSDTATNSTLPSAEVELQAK
VCAM-1 inhibition = inhibitors of TNFa-induced VCAM-1 surface display, cell-based, plate reader, pooled HUVEC, TNFa stimulus (AID 454); HUVEC TNFa-induced VCAM-1 surface immunofluorescence, plate reader; numbers were filed only for top-ranked candidate wells; 0.2% of 10,000 active; inhibition, % at 5 µM;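 active means compound among top-ranked inhibitors of TNF-induced VCAM-1 adhesion protein staining, with the hit upheld by image or statistical review; inactive means the rest, including hits rejected on review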;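 further: 0% = TNFa with vehicle and 100% = cells without TNFa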
VCAM-1 up imaging = boosters of cytokine-driven VCAM-1 levels – imaging, high-content imaging, pooled HUVEC, TNFa stimulus (AID 457); Pooled HUVEC, TNFa-induced VCAM-1 immunofluorescence imaging; hits of this screen are not shown here; calls only; 0.2% of 10,000 active;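 active means a top-ranked rise in VCAM-1 staining upheld on image or statistical review; inactive means the rest, including candidates rejected on review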;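 further: compounds tested at 5 µM in the well; cells exposed to compound for 24 hours before fixing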
FPRL1 binder = ligands of human FPRL1, also counter-screen for FPR ligands; 0.3% of 24,000 active; P25090; FPRL1-expressing cells, fluorescent ligand binding inhibition, flow cytometry; inhibition, %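 (tested at 6.7 µM)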; AID 441;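 further: 0% = buffer alone and 100% = receptor blocker peptide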
Target sequence (P25090 whole entry, looked up): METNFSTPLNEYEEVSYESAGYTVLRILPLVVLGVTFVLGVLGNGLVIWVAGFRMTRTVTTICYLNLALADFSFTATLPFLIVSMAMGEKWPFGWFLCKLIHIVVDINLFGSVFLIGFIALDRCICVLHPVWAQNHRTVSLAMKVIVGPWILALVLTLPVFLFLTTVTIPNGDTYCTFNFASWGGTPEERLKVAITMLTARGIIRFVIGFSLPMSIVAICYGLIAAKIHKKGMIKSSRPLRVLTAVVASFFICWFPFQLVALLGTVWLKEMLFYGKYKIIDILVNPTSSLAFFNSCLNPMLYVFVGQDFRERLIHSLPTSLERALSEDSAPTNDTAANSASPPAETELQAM
* = called active by the depositor; i = inactive; x = not tested or not shown.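 How the source made its calls, unless noted: active means mean above 30%; inconclusive means self-fluorescent; inactive means the rest.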 This is a subset, so the mix of outcomes need not match the whole.

item | SMILES | VCAM-1 imaging | FPR ligand | VCAM-1 inhibition | VCAM-1 up imaging | FPRL1 binder
1 | Cc1nc2c(C(=O)NCCC(C)C)c[nH]n2c(=O)c1Cc1ccccc1F | x | -4.0 | x | x | -1.8
2 | CCOC(=O)CSc1nnc(CNC(=O)c2ccc(OC)cc2OC)n1C | x | 3.3 | x | x | -1.8
3 | N=c1ncn(CC(O)CN2CCOCC2)c2nc(N3CCOCC3)[nH]c12 (stereo unspecified) | i | -2.2 | i | i | -4.3
4 | CCC(Oc1ccc2ccccc2c1)C(=O)O (stereo unspecified) | i | -0.2 | i | i | 5.3
5 | COc1cc(NC(=O)Cc2nn(C)c(=O)c3ccccc23)cc(OC)c1 | i | -0.5 | i | i | -0.9
6 | COc1ccc(-c2[nH]c(-c3ccc(F)cc3)nc2SCC(=O)NCc2ccco2)cc1OC | x | -1.9 | x | x | -3.7
7 | c1cncc(-c2nnc3sc(-c4ccco4)nn23)c1 | i | -4.3 | i | i | -6.8
8 | O=C(Cn1cc2c(n1)CCCCC2)N1CCCCC1 | x | -3.7 | x | x | 10.6
9 | COc1cccc(CNC(=O)C2CCN(C(=O)N(C)C)CC2)c1 | i | 3.3 | i | i | 5.4
10 | CCOc1cc(C(=O)NCC2CCCO2)cc(OCC)c1OCC (stereo unspecified) | i | 4.3 | i | i | -4.5
11 | O=C1NC2(CCCCC2)N=C1c1ccc(F)cc1 | x | 3.3 | x | x | -12.1
12 | O=C(NCC1CCCO1)C1CC(=O)N(c2ccc(F)c(Cl)c2)C1 (stereo unspecified) | x | -0.1 | x | x | 3.8
13 | CCN1CCN(Cc2c(C)[nH]c3ccc(OC)cc3c2=O)CC1 | i | 4.0 | i | i | 1.1
14 | O=C(O)/C=C/c1ccc(O)c(O)c1 | i | -0.1 | i | i | 0.8
15 | COc1cc(C(=O)O)ccc1OC(C)=O | x | 12.4 | x | x | 4.3
16 | Cc1cc(N2CC(C(=O)O)CC2=O)ccc1Br (stereo unspecified) | x | -4.5 | x | x | 0.3
17 | Cc1noc(C)c1S(=O)(=O)Nc1ccc(C(=O)NCc2ccccc2)cc1 | x | 5.8 | x | x | 3.3
18 | Cn1cccc1Cc1nnc(SCC(=O)Nc2ccccc2)n1-c1ccc(F)cc1 | x | 2.0 | x | x | -4.7
19 | CCN(CCNC(=O)CCCn1nc(C)n2c(cc3sccc32)c1=O)c1ccccc1 | x | -0.1 | x | x | 1.0
20 | CCOC(=O)CNC(=O)CSc1nc(N(C)C)nc(N2CCOCC2)n1 | i | 3.7 | i | i | -0.9
21 | Cc1ccc(C(C(=O)NC2CCCCC2)N2CCCC2)cc1 (stereo unspecified) | x | -8.0 | x | x | 0.1
22 | Cc1cccc(-n2c(Cc3cc(=O)[nH]c(=O)[nH]3)nnc2SCC(=O)NCC2CCCO2)c1 (stereo unspecified) | x | -7.4 | x | x | -2.5
23 | CCOc1ccccc1NC(=O)CSc1nnc2c(CC)c(C)nc(N)n12 | i | -11.5 | i | i | -1.1
24 | CC(=O)n1nc(-c2ccco2)nc1N | x | -3.7 | x | x | 11.2
25 | COC(=O)C1=[N+]([O-])OC(C(=O)OC)C1c1c[nH]c2ccccc12 (stereo unspecified) | x | 35.3* | x | x | 76.9*
26 | O=C(CNS(=O)(=O)c1cccs1)N1CCN(c2ccccn2)CC1 | x | -8.1 | x | x | -4.6
27 | CCOc1ccc(Cc2nn[nH]n2)cc1 | i | -0.8 | i | i | -5.0
28 | Cc1ccccc1OCCN1C(=O)NC2(CCc3ccccc32)C1=O (stereo unspecified) | i | 0.9 | i | i | -10.5
29 | O=C(CSc1nccn1-c1ccc(F)cc1)Nc1ccc2c(c1)OCO2 | x | 5.9 | x | x | 4.3
30 | COc1cc2c(cc1OC)C(C(=O)Nc1ccc3c(c1)OCCO3)C1c3ccccc3CCN1C2=O (stereo unspecified) | x | 2.9 | x | x | -1.9
31 | O=C(Oc1ccc2c(c1)CCC2)N1CCOCC1 | i | -10.7 | i | i | 5.2
32 | O=C(CN1CC(=O)Oc2ccccc21)OCC(=O)c1cccc(Br)c1 | x | 6.8 | x | x | -1.6
33 | Fc1ccc(C2CC(c3ccccc3)Nc3ncnn32)cc1 (stereo unspecified) | x | 10.1 | x | x | 4.3
34 | O=C1NCCN1Cc1ccccc1F | x | -0.4 | x | x | 0.4
35 | O=C(NCc1nnc(SC/C=C/c2ccccc2)o1)c1ccco1 | x | 10.9 | x | x | 10.1
36 | CCCCCn1c2nc3ccccc3nc2c2c(=O)n(CC(C)C)cnc21 | i | 1.3 | i | i | 1.5
37 | CCOC(=O)C1CCN(S(=O)(=O)c2c(C)n[nH]c2C)CC1 | x | -9.3 | x | x | -2.5
38 | COc1ccc(N2CCN(c3ccc(N)cc3C#N)CC2)cc1 | i | 5.5 | i | i | -3.9
39 | O=C(Cn1c(=O)oc2cc(S(=O)(=O)N3CCc4ccccc43)ccc21)NC1CCCC1 | x | -5.8 | x | x | -7.7
40 | Cc1ccc(C)c(NC(=O)CCN2CC(C)OC(C)C2)c1 (stereo unspecified) | x | 3.2 | x | x | 1.2
41 | O=C(CC1Oc2ccccc2NC1=O)NCCCN1CCCC1=O (stereo unspecified) | x | 8.6 | x | x | 3.9
42 | CCOCCCNC(=O)C(NC(=O)CNC(C)=O)c1ccc(Cl)cc1 (stereo unspecified) | x | 2.4 | x | x | 2.9
43 | CCCC(=O)OCCn1c(Br)nc2c1c(=O)[nH]c(=O)n2C | i | -3.6 | i | i | -1.3
44 | CS(=O)(=O)N(Cc1nc2sc3c(c2c(=O)[nH]1)CCCC3)C1CCCCC1 | 76.9% | -2.6 | i | i | -3.6
45 | O=C(CCN1C(=O)c2cccnc2C1=O)NC1CCCCCC1 | x | 3.9 | x | x | 1.9
46 | CC1=C(C(=O)Nc2ccccn2)C(c2ccccc2)n2ncnc2N1 (stereo unspecified) | x | -5.5 | x | x | -1.9
47 | O=S1(=O)C=C(Oc2ccc(F)cc2)c2ccccc21 | i | -5.8 | i | i | -1.8
48 | CCOC(=O)c1sc2nc(CC(=O)OC)nc(N3CCN(c4ccccn4)CC3)c2c1C | x | 4.5 | x | x | -1.5
49 | CCOC(=O)c1c(NC(=O)c2nn(CC)cc2Br)c(C#N)cn1-c1ccccc1 | i | 8.0 | i | i | 2.7
50 | Fc1ccc(-c2nnc(NC3=NCCCCC3)o2)cc1 | x | -0.9 | x | x | 0.0
51 | O=c1ccc(S(=O)(=O)N2CCC(Cc3ccccc3)CC2)c[nH]1 | i | -3.3 | i | i | -2.7
52 | CN(C)c1ccc(O)c2c1CC1CC3[C@@H](N(C)C)C(=O)C(C(N)=O)=C(O)[C@]3(O)C(=O)C1=C2O (stereo partly specified) | i | 6.2 | i | i | 0.8
53 | COc1ccc2nc(C)cc(N3CCOCC3)c2c1 | i | 3.2 | i | i | 0.0
54 | CC1CCCCN1S(=O)(=O)c1cccc2cccnc12 (stereo unspecified) | x | -4.2 | x | x | 13.1
55 | Cc1ccnc(NC(=O)C2CCN(S(=O)(=O)c3cccc4nsnc34)CC2)c1 | x | -4.3 | x | x | -2.9
56 | O=C(O)C1CCCCC1C(=O)Nc1ccccc1F (stereo unspecified) | x | 0.4 | x | x | -3.3
57 | Cc1sc2ncn3ncnc3c2c1C | i | 6.0 | i | i | 4.3
58 | O=C(NCc1ccco1)C1CC(=O)N(c2ccc(F)cc2)C1 (stereo unspecified) | i | -25.2 | i | i | -10.4
59 | COc1ccc2nc3oc(C(=O)N4CCCCC4)cc3cc2c1 | i | -0.4 | i | i | -1.2
60 | Cc1ncoc1C(=O)Nc1ccc(Oc2ccccc2)cc1 | x | -5.1 | x | x | -9.4

An excerpt of these results, with one line to a screen.
[1] Cc1nc2c(C(=O)NCCC(C)C)c[nH]n2c(=O)c1Cc1ccccc1F
[2] CCOC(=O)CSc1nnc(CNC(=O)c2ccc(OC)cc2OC)n1C
[3] N=c1ncn(CC(O)CN2CCOCC2)c2nc(N3CCOCC3)[nH]c12 (stereo unspecified)
[4] CCC(Oc1ccc2ccccc2c1)C(=O)O (stereo unspecified)
[5] COc1cc(NC(=O)Cc2nn(C)c(=O)c3ccccc23)cc(OC)c1
[6] COc1ccc(-c2[nH]c(-c3ccc(F)cc3)nc2SCC(=O)NCc2ccco2)cc1OC
[7] c1cncc(-c2nnc3sc(-c4ccco4)nn23)c1
assay / entry	1	2	3	4	5	6	7
VCAM-1 imaging	x	x	i	i	i	x	i
FPR ligand	-4.0	3.3	-2.2	-0.2	-0.5	-1.9	-4.3
VCAM-1 inhibition	x	x	i	i	i	x	i
VCAM-1 up imaging	x	x	i	i	i	x	i
FPRL1 binder	-1.8	-1.8	-4.3	5.3	-0.9	-3.7	-6.8

[8] O=C(Cn1cc2c(n1)CCCCC2)N1CCCCC1
[9] COc1cccc(CNC(=O)C2CCN(C(=O)N(C)C)CC2)c1
[10] CCOc1cc(C(=O)NCC2CCCO2)cc(OCC)c1OCC (stereo unspecified)
[11] O=C1NC2(CCCCC2)N=C1c1ccc(F)cc1
[12] O=C(NCC1CCCO1)C1CC(=O)N(c2ccc(F)c(Cl)c2)C1 (stereo unspecified)
[13] CCN1CCN(Cc2c(C)[nH]c3ccc(OC)cc3c2=O)CC1
[14] O=C(O)/C=C/c1ccc(O)c(O)c1
assay / entry	8	9	10	11	12	13	14
VCAM-1 imaging	x	i	i	x	x	i	i
FPR ligand	-3.7	3.3	4.3	3.3	-0.1	4.0	-0.1
VCAM-1 inhibition	x	i	i	x	x	i	i
VCAM-1 up imaging	x	i	i	x	x	i	i
FPRL1 binder	10.6	5.4	-4.5	-12.1	3.8	1.1	0.8

[15] COc1cc(C(=O)O)ccc1OC(C)=O
[16] Cc1cc(N2CC(C(=O)O)CC2=O)ccc1Br (stereo unspecified)
[17] Cc1noc(C)c1S(=O)(=O)Nc1ccc(C(=O)NCc2ccccc2)cc1
assay / entry	15	16	17
VCAM-1 imaging	x	x	x
FPR ligand	12.4	-4.5	5.8
VCAM-1 inhibition	x	x	x
VCAM-1 up imaging	x	x	x
FPRL1 binder	4.3	0.3	3.3

More results follow:
item | SMILES | VCAM-1 imaging | FPR ligand | VCAM-1 inhibition | VCAM-1 up imaging | FPRL1 binder
61 | O=S(=O)(c1ccc(F)c(Cl)c1)N1CCCC1 | i | 3.5 | i | i | 5.5
62 | COc1ccc(C2C(=O)N(C3CCCCC3)CC(=O)N2C2CCCC2)cc1 (stereo unspecified) | x | -0.2 | x | x | -0.3
63 | N=c1c(C(=O)NCc2ccc3c(c2)OCO3)cc2c(=O)n3ccccc3nc2n1Cc1cccnc1 | i | 4.5 | i | i | 17.4
64 | N#CCSc1nc2[nH]ncc2c(=O)n1-c1ccccc1Br | x | -8.0 | x | x | 3.3
65 | COc1ccc(C(N)=O)cc1N | i | -4.1 | i | i | 4.9
66 | Nc1c(C(=O)CCC(=O)O)oc2ccc(Cl)cc12 | x | -2.0 | x | x | -8.0
67 | COc1ccccc1-c1cc(C(=O)Nc2c(F)cc(F)cc2Br)no1 | x | -0.1 | x | x | -6.5
68 | CCCS(=O)(=O)c1cn2cccc(N)c2c1S(=O)(=O)CCC | x | -3.9 | x | x | -2.7
69 | CCC(=O)Nc1ccc(Nc2ccccc2)cc1 | x | -2.2 | x | x | -4.5
70 | Nc1ccc(-c2nc3ccc(-c4nc5ccccc5o4)cc3[nH]2)cc1 | x | -1.8 | x | x | -5.5
71 | Cc1ccc2c(c1)c1c(n2CC(O)CNC(CO)(CO)CO)CCCC1 (stereo unspecified) | x | -4.3 | x | x | -0.1
72 | COc1ccccc1-n1cc(C(=O)NCC(=O)N2CCN(c3ccccn3)CC2)c2ccccc2c1=O | x | 5.5 | x | x | 9.9
73 | Cc1cccn2c(=O)c3cc(C(=O)NCc4ccccc4)c(=N)n(CCCN4CCOCC4)c3nc12 | x | 3.7 | x | x | -2.3
74 | COCCNC(=O)c1ccc2c(=O)n(CCOC)c(=O)[nH]c2c1 | x | -3.9 | x | x | 8.9
75 | Cc1nnc(SCC(=O)Nc2nccs2)[nH]c1=O | x | 0.0 | x | x | 5.5
76 | CCCNC(=O)C1CCN(S(=O)(=O)c2ccc3nc4c(c(C(=O)O)c3c2)CCCCC4)CC1 | i | 10.6 | i | i | 6.6
77 | Cc1cc(C)cc(N(CC(=O)N2CCc3ccccc32)S(=O)(=O)c2c(C)noc2C)c1 | x | -7.7 | x | x | -3.5
78 | CCOC(=O)N1CCN(C(=O)c2ccccc2NC(=O)COc2ccccc2C)CC1 | x | 8.9 | x | x | 4.9
79 | Cc1cc2cc(CCNS(C)(=O)=O)c(=O)[nH]c2cc1C | x | 6.1 | x | x | 3.9

Some of the entries so far, with values under each structure.
Each structure is followed by: VCAM-1 imaging	FPR ligand	VCAM-1 inhibition	VCAM-1 up imaging	FPRL1 binder
(63) N=c1c(C(=O)NCc2ccc3c(c2)OCO3)cc2c(=O)n3ccccc3nc2n1Cc1cccnc1
    i	4.5	i	i	17.4
(79) Cc1cc2cc(CCNS(C)(=O)=O)c(=O)[nH]c2cc1C
    x	6.1	x	x	3.9
